# Source: PubChem BioAssay
# Beta2AR agonist: beta2AR agonists driving receptor internalization, primary screen, cell-based, FAP fluorogen, flow cytometry; Beta-2 adrenergic receptor (Homo sapiens), P07550; 340,000 tested, 0.43% active; Am2.2-beta2AR cells; reference of the scale not given here; response, % (test concentration not listed);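 active = response above a set limit, near 3 SD of response in nonfluorescent compounds, cut at about 42% in these data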;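 also: stock transfer was 100 nL into about 11 µL; a reference agonist was the positive control; negative values mostly stem from fluorescent compounds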
# LANA-H2B inh: blockers of LANA interaction with H2A/H2B – biochemical, FP readout, HTS, primary screen | Protein LANA1 (Human herpesvirus 8 type P (isolate GK18)), Q9QR71 | cell-free LANA-H2A/H2B peptide, fluorescence polarization | inhibition, % (no concentration beside the values) | 320,000 tested, 0.6% active; in the data active = inhibition mostly above about 10%, no sharp cut-off; inactive = mostly below about 6.7%;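 also: stock transfer was 7.5 nL into about 10 µL; 0% = median of vehicle wells and 100% = median of positive control wells; one replicate is shown; the record names a cut of 25% in any replicate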
# UCH37 DUB inh: inhibitors of human UCH37 deubiquitinase, primary screen, biochemical, Ub-AMC cleavage, fluorescence. purified proteasome/UCH37. inhibition, % (test concentration not listed). 330,000 tested, 0.33% active. AID 588478, 2011;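 active = mean of two replicates above 20%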;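 also: 0% = compound-free wells with enzyme and 100% = wells lacking proteasome; stock transfer was 100 nL into about 20 µL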
# Target sequence (Q9Y5K5 whole entry, looked up): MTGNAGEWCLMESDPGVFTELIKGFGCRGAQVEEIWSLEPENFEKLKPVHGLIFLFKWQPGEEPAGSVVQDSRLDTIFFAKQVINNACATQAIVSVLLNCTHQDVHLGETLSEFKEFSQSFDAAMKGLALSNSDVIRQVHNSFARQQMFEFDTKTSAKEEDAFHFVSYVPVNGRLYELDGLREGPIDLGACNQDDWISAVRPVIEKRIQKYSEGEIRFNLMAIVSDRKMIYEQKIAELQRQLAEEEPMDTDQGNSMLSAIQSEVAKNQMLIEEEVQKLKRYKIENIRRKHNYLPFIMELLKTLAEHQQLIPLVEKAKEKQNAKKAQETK
#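 Reagent: Ub-AMC substrate; assay system: Proteasome-associated human UCH37 deubiquitinase; controls: no-proteasome and no-compound wells; read-out: % inhibition of Ub-AMC cleavage fluorescence; timing: 30 min preincubation with enzyme, 25 min cleavage at room temperature; signal: AMC fluorescence from Ub-AMC cleavage, excitation 355 nm, emission 460 nm; buffer or medium: Tris-HCl pH 7.4 plus ovalbumin, ATP-MgCl2, DTT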
# Ecoli growth: E. coli growth inhibition, primary screen, OD600. OD600 absorbance (no concentration beside the values). Escherichia coli growth, 23 h; active compounds read low. AID 1053175, 2014. 330,000 tested, 0.21% active;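 active = OD600 absorbance below the run mean of sample wells minus 3.6 SD, in any replicate, cut at about 0.56 in these data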;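 also: stock transfer was 300 nL into about 60 µL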
# HNF4A DNA FP: change in binding of human HNF4A to DNA, primary screen, biochemical, fluorescence polarization, FITC-DNA | Hepatocyte nuclear factor 4-alpha (Homo sapiens), P41235 | 1 h | activity change, % at 10 µM | 360,000 tested, 0.3% active | AID 1224865, 2016; in the data active = activity change above about 30%, passing the limit was not always enough;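 also: controls were the assay level and a saturating level of protein; the project sought stronger binding though the title names inhibitors; some compounds called inactive have numbers as strong as hits; positive values seem to mean higher polarization but the record does not say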
# Target sequence (P41235 whole entry, looked up): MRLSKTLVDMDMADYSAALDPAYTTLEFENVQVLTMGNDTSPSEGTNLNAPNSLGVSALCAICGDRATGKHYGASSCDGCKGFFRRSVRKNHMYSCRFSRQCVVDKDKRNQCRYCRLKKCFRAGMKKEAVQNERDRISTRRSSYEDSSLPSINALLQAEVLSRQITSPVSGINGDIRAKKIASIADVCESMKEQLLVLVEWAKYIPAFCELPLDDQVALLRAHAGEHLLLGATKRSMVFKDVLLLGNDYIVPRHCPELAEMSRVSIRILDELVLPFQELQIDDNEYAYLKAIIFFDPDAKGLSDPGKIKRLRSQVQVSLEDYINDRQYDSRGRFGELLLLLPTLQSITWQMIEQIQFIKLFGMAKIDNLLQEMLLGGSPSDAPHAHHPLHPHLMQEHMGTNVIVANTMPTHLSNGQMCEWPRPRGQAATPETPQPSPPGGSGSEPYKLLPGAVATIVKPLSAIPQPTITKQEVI
# ALR H2O2 inh: inhibitors of human ALR sulfhydryl oxidase, primary screen, biochemical, H2O2 detection, HRP-luminol luminescence, single point. 290,000 tested, 3.8% active. purified ALR, DTT oxidation. FAD-linked sulfhydryl oxidase ALR (Homo sapiens), P55789. inhibition, % (concentration not given with the values);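 active = mean and each replicate at 75% or more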;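 also: stock transfer was 7.5 nL into about 7.5 µL; 0% = neutral wells and 100% = wells with inactivated enzyme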
# Target sequence (P55789 whole entry, looked up): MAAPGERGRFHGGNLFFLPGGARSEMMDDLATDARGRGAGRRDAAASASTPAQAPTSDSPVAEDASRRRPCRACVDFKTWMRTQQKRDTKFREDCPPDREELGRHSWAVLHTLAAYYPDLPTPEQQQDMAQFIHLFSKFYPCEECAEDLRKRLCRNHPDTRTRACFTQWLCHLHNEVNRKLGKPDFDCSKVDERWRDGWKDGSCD
# FGF22 binding: binders of human FGF22 protein, primary screen, FGF22 synaptogenesis inhibitor project, biophysical, thermal shift, single point | calls only at 9.99 µM | 340,000 tested, 1.5% active | recombinant FGF22 thermal shift, SYPRO orange fluorescence; percent of sucrose octasulfate shift, DMSO zero | AID 651658, 2012 | Fibroblast growth factor 22 (Homo sapiens), Q9HCT0;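 active = melting point raised past a set limit in the mean and every replicate; three in four hits are not shown here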
# Starred values were filed as active, the others as inactive; i = inactive; x = no result given.
SMILES,Beta2AR agonist,LANA-H2B inh,UCH37 DUB inh,Ecoli growth,HNF4A DNA FP,ALR H2O2 inh,FGF22 binding
Cc1cccc(Nc2nnc(SCC(=O)N(C)C3CCS(=O)(=O)C3)s2)c1C (stereo unspecified),-4,-24,3.7,0.69,0.8,-20,i
O=C(c1cnn(-c2ccccc2)c1)c1ccccc1O,-5,5.3,1.4,0.66,-2.3,-5,x
Cc1ccc(C(=O)NCc2ccc3c(c2)OCO3)cc1Cl,5,-1.6,2.2,0.63,1.4,-2,i
CN(C)S(=O)(=O)c1cccc(CSc2cccc[n+]2[O-])c1,-2,1.3,0.4,0.68,-4.0,-20,x
COc1ccc(/C=N/Nc2nc3ccccc3o2)cc1O,-1,2.0,x,x,4.1,99*,x
O=C(O)CCSc1nnc(-c2cccnc2)n1-c1ccccc1,-2,-0.2,-0.5,0.71,-0.4,-2,i
CN(C(=O)COC(=O)c1cc2c(s1)CCCCC2)c1ccccc1,5,4.2,0.3,0.59,4.2,-2,i
O=C(Nc1ccc(N2C(=O)C3C4C=CC(C4)C3C2=O)cc1)Nc1nnc(C(F)(F)F)s1 (stereo unspecified),8,-2.9,-1.2,0.7,5.8,24,i
FC(F)(F)c1ccc(N2CCOCC2)c(Nc2nc3ccccc3n3cnnc23)c1,2,-1.1,-33,0.68,30*,-5,i
O=C(O)c1ccc(CNC(=O)c2ccc(C(F)(F)F)cc2)cc1,0,1.7,3.6,0.7,-0.7,5,i
COc1ccc(C(=O)OCC(=O)Nc2cc(S(=O)(=O)N3CCOCC3)ccc2N2CCCC2)cc1,1,-3.8,2.2,0.67,1.3,-4,i
COc1ccc(OC)c(C(O)c2nc3ccccc3n2C(C)C)c1 (stereo unspecified),-1,-2.3,0.9,0.68,0.6,-9,x
O=C(CCc1ccc(O)c(O)c1)NNC(=S)Nc1ccc(Br)cc1Cl,-2,-2.6,0.6,0.67,-0.5,99*,i
NS(=O)(=O)c1cccc(NC(=O)c2cccc(Oc3ccccc3)c2)c1,-7,-4.0,4.9,0.65,-2.5,x,i
COc1cccc(-c2ccc3nnc(SCC(=O)N4CCCC4)n3n2)c1,-6,2.9,-19,0.64,2.3,0,i

# Next section; it opens with the 2 that closed the last part.
SMILES,Beta2AR agonist,LANA-H2B inh,UCH37 DUB inh,Ecoli growth,HNF4A DNA FP,ALR H2O2 inh,FGF22 binding
NS(=O)(=O)c1cccc(NC(=O)c2cccc(Oc3ccccc3)c2)c1,-7,-4.0,4.9,0.65,-2.5,x,i
COc1cccc(-c2ccc3nnc(SCC(=O)N4CCCC4)n3n2)c1,-6,2.9,-19,0.64,2.3,0,i
CCOc1ccc(C(=O)c2cnc3ccccc3c2N2CCN(CC)CC2)cc1,-17,-2.2,x,x,4.0,-18,i
COc1ccc(C(C)NC(=S)NCc2ccc(F)cc2)cc1 (stereo unspecified),2,2.9,0.6,0.73,5.4,-9,i
Cc1noc(C)c1C(c1ccccc1)S(=O)(=O)c1ccccc1 (stereo unspecified),-3,-0.1,1.6,0.7,-1.2,34,x
COc1ccc(OCc2cc(=O)c3ccc4c(c3o2)C=CC(C)(C)O4)cc1OC,7,-1.8,5.2,0.69,1.7,-17,i
CCOCC(=O)Nc1cc(Cl)c(OC)cc1OC,x,0.5,0.2,0.68,x,-7,x
COc1ccc(N2CCN(C(=O)COC(=O)c3ccc(C)o3)CC2)cc1,4,2.3,-1.4,0.71,-0.9,55,i
Cc1cc(C(=O)Nc2nnc(C3CC3)s2)c(C)s1,1,-3.2,2.5,0.68,2.1,0,i
O=C(Nc1cccc(C(=O)O)c1)/C(=C/c1ccccc1)NC(=O)c1cccc(Br)c1,-2,-5.0,7.1,0.62,1.4,-6,i
CN(N=Nc1nc[nH]c1C(=O)NN)C1CCCCC1,-6,x,x,x,0.2,x,i
CCOC(=O)C1=C(CC)Nc2ccccc2N=C1NC(=O)c1ccc(S(=O)(=O)N(C)C)cc1,2,9.7,1.4,0.74,-3.1,-1,x
COC(=O)CSc1nc2cc3c(cc2cc1C#N)OCO3,0,1.0,-24,0.74,3.8,-4,x
CCOC(=O)c1sc2ncnc(NCc3ccco3)c2c1C,-28,-1.2,x,0.68,9.8,62,x
COc1ccc(C=NOCC(=O)OCC(=O)Nc2ccc(OC)cc2)cc1,2,-2.9,5.0,0.69,4.2,-5,i
NC(=S)Cc1nc2n(n1)Cc1ccccc1-2,-3,10,3.0,0.7,-1.7,3,x
Cc1ccc(S(=O)(=O)N2CCN(CC(=O)N/N=C/c3ccc(Br)s3)CC2)cc1,5,-2.2,x,x,1.4,-17,x
COCCCN1C(=O)c2ccccc2C1C(=O)NC1CCCCCC1 (stereo unspecified),19,-4.6,4.3,0.68,-3.6,1,x
COc1ccc(CNC(=O)Cc2c[nH]c3ccccc23)cc1OC,-4,-2.1,1.6,0.66,-3.3,-3,i
CCS(=O)(=O)N1CCN(c2ccc([N+](=O)[O-])c(NCc3ccccc3)c2)CC1,4,-0.2,2.5,0.68,2.6,-3,x
Cc1oc2ccc(OC(=O)COc3c(F)c(F)c(F)c(F)c3F)cc2c1C(=O)OC(C)C,-3,-1.6,6.0,0.69,-0.2,0,i
COc1ccc(CCN(C)C(=O)CN2C(=O)NC3(CCCc4ccccc43)C2=O)cc1OC (stereo unspecified),1,2.7,4.5,0.67,0.8,1,i
N#Cc1ccccc1/C=N/Nc1nc(-c2ccccc2)c2cc(Cl)ccc2n1,-8,55*,x,x,-0.2,31,x
Cc1ccc(Nc2ccc(S(=O)(=O)N3CCOCC3)cc2[N+](=O)[O-])c(C)c1,-5,-6.2,3.8,0.69,0.2,-4,x
Clc1ccc(/C=N/c2c(-c3ccco3)nc3ccccn23)cc1,-2,4.6,x,x,-3.8,x,x
COc1ccc(NC(=O)CN(C)C(=O)c2ccc(N3CCOCC3)c([N+](=O)[O-])c2)cc1,-2,-0.5,4.2,0.7,-0.5,-8,i
Cc1cn(C2OC(CC(=O)Oc3ccccc3)C(O)C2O)c(=O)[nH]c1=O (stereo unspecified),-5,-3.8,3.0,0.64,-1.4,-5,i
CCOC(=O)c1ccc(NC(=S)NCCCN2CCOCC2)cc1,-8,-2.4,6.6,0.67,0.6,-5,i
COC(=O)c1c(-c2cc(OC)cc(OC)c2)sc2ccc(OC)cc12,-1,-2.1,-2.0,0.72,0.2,x,i
CCOC(=O)C1=C(C)N(CCCCCC(=O)O)C(=O)NC1c1ccccc1OS(=O)(=O)c1ccc(C)cc1 (stereo unspecified),-2,-4.2,4.8,0.7,0.7,-12,i
C=CC[C@@H](Cc1ccc(F)cc1)C(=O)OC[C@@H]1CCCN1C(=O)[C@@H](CC=C)CC(=O)N[C@H](CO)Cc1ccccc1,-8,4.4,0.1,x,-3.0,-16,i
CCN(CCN(C)C)C(=O)Cn1ncc2c1-c1cc(C)ccc1OC2,4,4.5,4.0,0.7,-0.9,-10,i
NS(=O)(=O)c1ccc(-c2c(-c3ccccc3)sc3ccccc23)cc1,0,-2.7,1.4,0.68,0.0,-6,i
Cc1ccc(OCC(=O)N2CCC(Cc3ccccc3)CC2)c([N+](=O)[O-])n1,-18,-7.8,3.0,0.69,-1.9,-3,i
CCC/C=N/Nc1nnc(Cc2ccccc2)c(=O)[nH]1,1,-3.1,x,x,5.1,9,i
N#CCCN1CCN(S(=O)(=O)c2ccc(S(=O)(=O)NCC3CCCO3)cc2)CC1 (stereo unspecified),0,1.6,1.6,0.68,-2.5,-14,i
COc1ccc(CCN2C(=NC(=O)CCC(=O)O)SC3CS(=O)(=O)CC32)cc1OC (stereo unspecified),-2,6.3,1.0,0.69,-1.0,-3,x
CCN(CC)C(=O)Cn1cc(S(=O)(=O)CC(=O)N2CC(C)OC(C)C2)c2ccccc21 (stereo unspecified),0,-2.6,2.2,0.74,5.3,x,i
O=C(CCCn1c(SCc2ccccc2F)nc2ccccc2c1=O)NCC1CCCO1 (stereo unspecified),-6,-1.2,0.8,0.71,-1.2,-1,i
O=C(COC(=O)CCN=C1NS(=O)(=O)c2ccccc21)NNC(=O)c1ccccc1,3,-3.2,1.0,0.73,0.5,-1,i
Cc1cc(Nc2ncc(Cl)cc2Cl)n[nH]1,-2,0.1,5.8,0.74,0.2,-2,x
Clc1ccc(Nc2ncnc3ccc(Br)cc23)cc1,5,0.7,-40,0.65,3.0,-2,x
CCOC(=O)C1=C(N)Oc2c(oc(CO)cc2=O)C1c1c(F)cccc1Cl (stereo unspecified),1,3.8,2.9,0.69,1.9,x,x
Cc1cc(C)nc(NS(=O)(=O)c2ccc(N=Cc3c(C)[nH]n(-c4ccccc4)c3=O)cc2)n1,12,2.0,7.3,0.62,3.6,5,i
Cc1ccc(S(=O)(=O)CCc2nnc(NC(=O)C3CCCO3)s2)cc1 (stereo unspecified),-7,0.6,1.9,0.72,0.6,-6,x
Cc1nn(C(C)C(=O)NCc2ccccc2)c(C)c1[N+](=O)[O-] (stereo unspecified),6,-1.5,5.7,0.67,0.5,-7,x
COc1ccc(NC(=O)CN(C)C(=O)CN2C(=O)C3CCCCC3C2=O)cc1 (stereo unspecified),1,-4.0,2.6,0.7,0.5,-9,x
O=C(CN1C(=O)NC2(CCCCCC2)C1=O)NCc1ccccc1,-4,-1.7,0.7,0.71,-15,3,i
O=C(Cc1cccc(C(F)(F)F)c1)OCN1C(=O)c2ccccc2C1=O,2,4.8,6.1,0.69,-2.3,x,i
COc1ccc(-c2csc(-n3ncc(C(=O)O)c3C(F)(F)F)n2)cc1,1,15,-0.2,0.64,0.2,3,i
O=C1CC(C(=O)Nc2ccc(Cl)cc2)n2ncnc2N1 (stereo unspecified),-1,-1.4,0.5,0.69,1.9,1,i
COc1ccc(/C=c2\sc3nc(-c4ccccc4OC)nn3c2=O)c(OC)c1,1,0.2,x,x,11,23,x
Oc1ccc(C=NCC2COc3ccccc3O2)cc1 (stereo unspecified),-4,-0.6,5.9,0.69,3.0,5,x
O=C1NN=C(c2ccc(Cl)cc2)CC1c1c[nH]c2ccccc12 (stereo unspecified),9,-1.1,-6.6,0.68,-1.2,11,i
COc1ccc(OC)c(NC(=O)CS(=O)(=O)c2ccccc2)c1,7,0.4,4.3,0.71,-1.2,-13,x
O=C(COC(=O)c1ccc(Cl)nc1)NCCc1ccc(Cl)cc1,-5,5.6,-0.7,0.69,1.8,-2,i
O=c1[nH][nH]c(C(F)(F)F)c1C=NCc1cccs1,3,-13,4.1,0.67,-2.5,-28,i

# Reformatted: results already given.
Structure | Beta2AR agonist | LANA-H2B inh | UCH37 DUB inh | Ecoli growth | HNF4A DNA FP | ALR H2O2 inh | FGF22 binding
CCOC(=O)c1ccc(NC(=S)NCCCN2CCOCC2)cc1 | -8 | -2.4 | 6.6 | 0.67 | 0.6 | -5 | i
COC(=O)c1c(-c2cc(OC)cc(OC)c2)sc2ccc(OC)cc12 | -1 | -2.1 | -2.0 | 0.72 | 0.2 | x | i
CCOC(=O)C1=C(C)N(CCCCCC(=O)O)C(=O)NC1c1ccccc1OS(=O)(=O)c1ccc(C)cc1 (stereo unspecified) | -2 | -4.2 | 4.8 | 0.7 | 0.7 | -12 | i
C=CC[C@@H](Cc1ccc(F)cc1)C(=O)OC[C@@H]1CCCN1C(=O)[C@@H](CC=C)CC(=O)N[C@H](CO)Cc1ccccc1 | -8 | 4.4 | 0.1 | x | -3.0 | -16 | i
CCN(CCN(C)C)C(=O)Cn1ncc2c1-c1cc(C)ccc1OC2 | 4 | 4.5 | 4.0 | 0.7 | -0.9 | -10 | i
NS(=O)(=O)c1ccc(-c2c(-c3ccccc3)sc3ccccc23)cc1 | 0 | -2.7 | 1.4 | 0.68 | 0.0 | -6 | i

# Not all compounds are listed (hit frequency here may not be typical).
